KCNQ2 inh – KCNQ2 channel blockers in CHO-K1 cells – cell-based, FluxOR thallium flux, B-score, primary screen (AID 2156). O88943. 20 min; stronger effect = lower value; only compounds with negative scores are shown here; some inactives read as strong as hits. B-score at 10 µM. actives 1.1% (n = 310,000);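 active means fluorescence ratio B-score at most minus 3 library SDs, with starting brightness B-score within 2 library SDs, cut at about -5.5 in these data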
Target sequence (O88943 whole entry, looked up): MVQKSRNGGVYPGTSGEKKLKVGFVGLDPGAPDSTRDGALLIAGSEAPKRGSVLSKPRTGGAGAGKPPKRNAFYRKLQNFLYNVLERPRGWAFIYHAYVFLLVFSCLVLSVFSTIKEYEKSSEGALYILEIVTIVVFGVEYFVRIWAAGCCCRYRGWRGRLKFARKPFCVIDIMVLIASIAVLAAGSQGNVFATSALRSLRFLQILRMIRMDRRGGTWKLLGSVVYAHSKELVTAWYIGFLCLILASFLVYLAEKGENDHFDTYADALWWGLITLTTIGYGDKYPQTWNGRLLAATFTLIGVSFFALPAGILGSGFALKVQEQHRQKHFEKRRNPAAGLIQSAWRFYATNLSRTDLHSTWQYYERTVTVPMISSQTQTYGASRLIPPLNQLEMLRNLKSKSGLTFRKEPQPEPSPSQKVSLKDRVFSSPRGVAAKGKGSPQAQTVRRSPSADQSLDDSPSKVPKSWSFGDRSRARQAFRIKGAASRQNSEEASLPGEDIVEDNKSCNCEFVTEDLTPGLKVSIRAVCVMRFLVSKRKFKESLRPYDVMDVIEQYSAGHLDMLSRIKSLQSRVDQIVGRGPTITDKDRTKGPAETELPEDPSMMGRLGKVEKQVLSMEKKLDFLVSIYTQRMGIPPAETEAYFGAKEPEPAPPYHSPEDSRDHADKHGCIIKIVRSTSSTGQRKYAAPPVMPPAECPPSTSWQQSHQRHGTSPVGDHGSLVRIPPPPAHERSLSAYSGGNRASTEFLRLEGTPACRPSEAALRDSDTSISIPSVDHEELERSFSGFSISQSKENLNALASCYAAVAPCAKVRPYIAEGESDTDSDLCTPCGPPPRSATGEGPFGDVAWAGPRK
KCNQ2 inh baseline – also measured in KCNQ2 inh; calls as there; B-score; measured here: initial fluorescence intensity artifact check;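 brightness before thallium and not channel activity; 0 = typical well and far values either way flag optical interference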
The depositor's hits bear a star; i = inactive.

SMILES | KCNQ2 inh | KCNQ2 inh baseline
O=C(Cc1ccc(Cl)cc1)Nc1ccc(N2CCN(C(=O)c3ccco3)CC2)cc1 | i | -0.05
CC(C)CN(CCNC(=O)CN1C(=O)COc2ccc(S(=O)(=O)N3CCC(C)CC3)cc21)CC(C)C | i | -0.92
CC(=O)c1cccc(OCc2cc(C(=O)N(C)CCc3ccccn3)no2)c1 | i | 0.48
O=C(NCC1OCCCN1S(=O)(=O)c1cc(F)ccc1F)C(=O)NC1CCCC1 (configuration not stated) | i | -1.6
COc1ccc(-c2cn3c(C)c(C(=O)N4CCCc5ccccc54)sc3n2)cc1 | i | -0.51
COc1cc(OC)cc(-c2cc3nc(C)c(CCC(=O)NC(C)CCc4ccco4)c(C)n3n2)c1 (configuration not stated) | i | -0.27
CCc1ccc(NC(=O)CN(c2ccccc2)S(=O)(=O)N(C)C)cc1 | i | -0.09
CC(C)/C=C/CN1CCN(CCCc2ccccc2)C(CCO)C1 (configuration not stated) | i | -0.3
Cc1sc(NC(=O)CS(=O)(=O)c2ccccc2)c(C#N)c1C | i | -2.27
CCOC(=O)C1(CC2CC2)CCN(Cc2cnc(-c3ccccc3C)nc2)CC1 | i | 0.49
Cc1ccc(CNC(=O)C2CCN(S(=O)(=O)c3cnc[nH]3)CC2)cc1 | i | 0.1
CCOCCCNC(=O)C1CCN(C(=O)Nc2ccc(Cl)cc2)CC1 | i | 1.27
CCOc1ccc(-c2cc(C(=O)N3CCC(C)CC3)c3ccccc3n2)cc1 | i | -0.17
Cc1oc2c(C)c3oc(=O)c(CCC(=O)N4C[C@H]5C[C@@H](C4)c4cccc(=O)n4C5)c(C)c3cc2c1C | i | 0.8
Cc1cccc(CNC(=O)Cn2ccc3cc(S(=O)(=O)N4CCCCCC4)ccc32)c1 | i | -0.87
O=C(C1=NN[C@@H]2C(=O)N(c3ccccc3C(F)(F)F)C(=O)[C@H]12)c1ccc2ccccc2n1 | i | 0.03
CCc1ccc(C(=O)NNC(=O)C2CSC3(C)CCC(=O)N23)cc1 (configuration not stated) | i | 0.59
CCOC(=O)N1CCC(NC(=O)CSCc2nc(-c3cccc(OC)c3)oc2C)CC1 | i | -1.55
CCCCC12CN3CCN(CC(C3)/C1=N\NC(=O)Nc1ccccc1)C2 | i | -3.11
O=C(NCCS(=O)(=O)N1CCCCCC1)c1ccccc1 | i | 0.43
NCCSC1CC(=O)N(c2ccc(F)cc2)C1=O (configuration not stated) | i | 1
O=C(CN(C(=O)CNC(=O)c1ccco1)c1ccc2c(c1)OCCO2)NC1CCCCC1 | i | 1.08
COc1ccccc1NC(=O)C(C)N(C)Cc1ccc(Cl)s1 (configuration not stated) | i | -1.13
COc1ccccc1NC(=O)c1c(Br)cnn1C | i | 0.44

2 compounds picked at random from the list so far:
SMILES | KCNQ2 inh | KCNQ2 inh baseline
Cc1cccc(CNC(=O)Cn2ccc3cc(S(=O)(=O)N4CCCCCC4)ccc32)c1 | i | -0.87
O=C(C1=NN[C@@H]2C(=O)N(c3ccccc3C(F)(F)F)C(=O)[C@H]12)c1ccc2ccccc2n1 | i | 0.03

Remaining list, next part:
SMILES | KCNQ2 inh | KCNQ2 inh baseline
N#Cc1c(-n2cccc2C=O)sc2c1CCCC2 | i | 0.05
COc1cccc(/C=C/C(=O)c2ccc(NC3=NCCCS3)cc2)c1 | i | 0.4
Cc1ccc(CNS(=O)(=O)/C=C/c2ccc3c(c2)OCO3)cc1 | i | 1.45
Cc1cc(C)c2c(CN3CCN(C)CC3)cc(=O)oc2c1 | i | 0.96
O=C(c1cccc([N+](=O)[O-])c1)N1CCN(c2cccc(Cl)c2)CC1 | i | -0.35
Cc1[nH]n(-c2ccccc2)c(=S)c1C=Nc1cccc([N+](=O)[O-])c1 | i | 2.18
Cc1noc(N)c1C(=O)Nc1ccc(C(C)(C)C)cc1 | i | 0.01
Fc1ccccc1CNCCC(Cc1ccccc1)c1ccc2c(c1)OCO2 (configuration not stated) | i | -0.02
CCOC(=O)C1CCN(C(=O)Cc2c(C(=O)O)[nH]c3ccccc23)CC1 | i | -0.96
CCCc1c(C)nc(N2CCN(c3ccc(F)cc3)CC2)[nH]c1=O | i | -0.88
COc1ccc(NC(=O)CN(C)CC(=O)Nc2ccc3c(c2)CCC3)cc1 | i | 0.37
O=C(CCc1nnc(CCc2c[nH]c3ccccc23)o1)NC1CCC1 | i | 1.85
COc1ccc(-n2ccnc(SCC(=O)NC3CCCC3)c2=O)cc1OC | i | -0.16
FC(F)(F)c1cccc(Cc2noc(CN3CCCC(OCc4ccccn4)C3)n2)c1 (configuration not stated) | i | -2.56
CCN(CC)c1ccc(/C=C2/C(=O)N(c3ccc([N+](=O)[O-])cc3)N=C2N2CCOCC2)cc1 | i | 0.37
CCCn1cnc2cc(NCc3cccc(OC)c3)ccc21 | i | -0.69
COc1cc(-c2cc(C(=O)Nc3ccc(S(N)(=O)=O)cc3)c3ccccc3n2)cc(OC)c1OC | i | 1.12
CC(C)(C)OC(=O)CC[C@@H](C(=O)N1CCN(C(=O)OC(C)(C)C)CC1)n1cc(C(Cc2ccc(O)cc2)NC(=O)OC(C)(C)C)nn1 (some centres not stated) | i | -0.52
O=C(CNc1cccc(F)c1)N1CCc2ccccc2C1 | i | 0.99
Cc1ccc(S(=O)(=O)N2CCN(C(=O)c3n[nH]c(=O)c4ccccc34)CC2)cc1 | i | -0.16
C/C(=N\NC(=O)CSc1nc2ccccc2s1)c1cccnc1 | i | -0.33
Cc1cc(C)cc(S(=O)(=O)c2cn(C)c3cc(N4CCN(C)CC4)c(F)cc3c2=O)c1 | i | 3.46
O=c1sc2ccccc2c(=O)n1Cc1ccccc1F | i | -1.41
CN(C)CCSc1nc(O)c(-c2ccccc2)c(=O)n1-c1ccccc1 | i | -0.45
CCC(C(=O)OC(C)C(=O)Nc1ccc(Cl)cn1)c1ccccc1 (configuration not stated) | i | 2.08
Cc1ccc(C(=O)NCC(=O)NCCc2ccc(S(N)(=O)=O)cc2)s1 | i | 1.14
CC(=O)N(c1nc(/C=C\C(=O)O)cs1)c1ccccc1F | i | -0.01
CC(C)(C)c1ccc(OCCNCc2ccccc2)cc1 | i | 0.72
O=C(Cn1nc(-c2ccco2)ccc1=O)Nc1cc(C(F)(F)F)ccc1Cl | i | -0.92
CCN1c2ccccc2-c2nc3ccccc3n2C1c1cccnc1 (configuration not stated) | i | -0.61
O=C(O)[C@H](Cc1ccccc1)NC(=O)N1CCN(c2cccc(C(F)(F)F)c2)CC1 | i | -0.43
CCOc1cc(CNCCCN2CCOCC2)cc(Br)c1OCc1ccccc1Cl | -5.92* | -0.63*
CNc1ccc(/C=C/C(=O)c2ccc(C)cc2)cc1[N+](=O)[O-] | i | -0.35
O=C(Nc1ncccc1O)c1ccc(Oc2ccccc2)cc1 | i | 1.7
Cc1cccc(N2CCN(c3ccc4cc(S(=O)(=O)N5CCCCC5)ccc4n3)CC2C)c1 (configuration not stated) | i | -0.34
CCN(CC)C(=O)CSC(Nc1cccc(F)c1)=C(C#N)C#N | i | -0.25
O=C1Nc2cc(C(=O)N3CCN(c4ccccc4F)CC3)ccc2NC1CSCc1ccccc1F (configuration not stated) | i | 0.1
O=C(NCCc1c[nH]c2ccccc12)C1CCN(Cc2ccc(Br)cc2)CC1 | i | -0.58
COC(=O)C1(CCSC)NC(c2ccccc2OC)C2C(=O)N(C)C(=O)C21 (configuration not stated) | i | -0.44
CCOc1cccc2sc(N(CCCN(C)C)C(=O)c3ccc(S(=O)(=O)N(C)c4ccccc4)cc3)nc12 | i | -2.42
CCCNC(=O)c1ccccc1NC(=O)COc1cccc2c1OC(C)(C)C2 | i | 0.15
COc1ccc(OC)c(NC(=O)CSc2nnc(C3CCCCC3)n2N)c1 | i | 1.12
COC(=O)CCC(=O)NNC(=O)c1cccc(Br)c1 | i | 0.76
Cc1ccc(C)c(/C=N/NC(=S)NC(C)C)c1 | i | 3.23
CCC(C)(C)n1nnnc1C(c1ccc(OC)c(OC)c1)N1CCN(c2ccc(F)cc2)CC1 (configuration not stated) | i | 0.01
Cc1ccc(S(=O)(=O)Nc2cccnc2)cc1C | i | 1.65
Cc1c2c(n3c(nc4ccccc43)c1C#N)N(CCN1CCOCC1)CC2 | i | -0.03
O=C(CSc1nnc(SCc2ccc(Cl)cc2)s1)N/N=C/c1c[nH]c2ccccc12 | i | 0.32

2 of the compounds above, with values under each structure.
Values in the order – KCNQ2 inh, KCNQ2 inh baseline
Cc1ccc(S(=O)(=O)Nc2cccnc2)cc1C
  i, 1.65
Cc1c2c(n3c(nc4ccccc43)c1C#N)N(CCN1CCOCC1)CC2
  i, -0.03

More results
SMILES | KCNQ2 inh | KCNQ2 inh baseline
Cc1cccc(-n2ncc3c(N4CC(C)CC(C)C4)ncnc32)c1 (configuration not stated) | i | 0.19
O=S1(=O)CCOC[C@H](c2ccccc2)N1Cc1cccc(F)c1 | i | -0.53
Cc1cccc(C(=O)Nc2ccccc2NC(=O)c2cccc(C)c2)c1 | i | -0.03
CN1CCN(c2nc(-c3ccc(Cl)c(Cl)c3)nc3ccccc23)CC1 | i | -0.8
COc1ccc(-n2cnnc2SCC(=O)Nc2cccnc2Cl)cc1 | i | 1.53
CC1(OC(=O)CCc2ccccc2)C(=O)C=C2C=C(c3ccc(C#N)cc3)N(C3CC3)C=C2C1=O (configuration not stated) | i | -1.49
O=C(O)c1ccccc1/C=N/NC(=O)c1cc(-c2ccco2)nc2ccccc12 | i | -0.68
CCCC(c1nnnn1CS(=O)(=O)c1ccc(C)cc1)N1CCN(C2CCCC2)CC1 (configuration not stated) | i | 2.98
CCOC(=O)[C@@H]1[C@H]2COc3ccc(Br)cc3[C@@H]2N2C(=O)N(c3cccc(Cl)c3)C(=O)[C@]12C | i | -0.15
O=C(CNCC1CCCCC1)Nc1ccccc1N1CCCCC1 | i | 0.55
CC(C)C(OC(=O)/C=C/c1ccc2c(c1)OCO2)C(=O)NC(N)=O (configuration not stated) | i | -1.39
Cc1cc(C)c(C(=O)COC(=O)Cn2cnnn2)cc1C | i | 0.92
C/C(=N/NC(=O)c1cc(C2CC2)[nH]n1)c1cccs1 | i | 1.94
CCc1ccccc1NC(=O)c1cc(-c2ccc(OC)cc2)on1 | i | -2.44
O=C(COC(=O)C1CCN(c2ccc(C(F)(F)F)cn2)CC1)Nc1cc(F)ccc1F | i | 0.07
O=C1N(Cc2cccnc2)C[C@@H]2C[C@@H](c3ccc(-c4ccccc4)cc3)N3CCC[C@@]123 | i | 1.76
CN(C)CCCn1c(SCC(=O)Nc2nc(-c3cccc(Br)c3)cs2)nc2ccccc2c1=O | i | 0.87
Cc1ccc(C(=O)C(C)OC(=O)Cn2[nH]c(=O)c3ccccc3c2=O)cc1C (configuration not stated) | i | 0.87
CCOC(=O)/C=C/c1ccc2c(c1)S(=O)(=O)N(Cc1ccc(OC)cc1)[C@H]2CC(=O)OCC | i | -0.05
COC(=O)c1ccc(COc2cc([N+](=O)[O-])cc3cccnc23)o1 | i | 1.2
Cc1c(C(=O)N2CCCCC2)c(S(=O)(=O)NCc2ccc(Cl)cc2)c(C)n1C | i | 0.01
COC(=O)c1cccc(Oc2cccc(Cl)n2)c1 | i | 1.52
O=C1CCC(C(=O)N2CCN(c3cnccn3)CC2)CN1CCc1ccc(Cl)cc1 (configuration not stated) | i | -0.31
COc1cc(NC(=S)NCc2ccc(S(N)(=O)=O)cc2)cc(OC)c1 | i | -2.33

Copied from the list:
CN(C)CCCn1c(SCC(=O)Nc2nc(-c3cccc(Br)c3)cs2)nc2ccccc2c1=O in KCNQ2 inh baseline shows 0.87
O=C1N(Cc2cccnc2)C[C@@H]2C[C@@H](c3ccc(-c4ccccc4)cc3)N3CCC[C@@]123 in KCNQ2 inh baseline shows 1.76
Cc1c(C(=O)N2CCCCC2)c(S(=O)(=O)NCc2ccc(Cl)cc2)c(C)n1C in KCNQ2 inh baseline shows 0.01

In another format: six of the compounds above.
KCNQ2 inh	KCNQ2 inh baseline	canonical_smiles
i	-2.56	FC(F)(F)c1cccc(Cc2noc(CN3CCCC(OCc4ccccn4)C3)n2)c1 (configuration not stated)
i	0.48	CC(=O)c1cccc(OCc2cc(C(=O)N(C)CCc3ccccn3)no2)c1
i	0.43	O=C(NCCS(=O)(=O)N1CCCCCC1)c1ccccc1
i	-0.35	CNc1ccc(/C=C/C(=O)c2ccc(C)cc2)cc1[N+](=O)[O-]
i	-0.43	O=C(O)[C@H](Cc1ccccc1)NC(=O)N1CCN(c2cccc(C(F)(F)F)c2)CC1
i	-0.45	CN(C)CCSc1nc(O)c(-c2ccccc2)c(=O)n1-c1ccccc1

(next part)
SMILES | KCNQ2 inh | KCNQ2 inh baseline
COc1cccc(OC)c1C(=O)OCC(=O)/C(C#N)=C(\C)N | i | 1.68
CCCn1c(SCC(=O)Nc2cc(C)on2)nc2c1c(=O)n(C)c(=O)n2C | i | -0.43
COc1ccccc1-n1c(=S)sc2c(=O)n(Cc3ccco3)c(SC)nc21 | -6.92* | 0.34*
C=CCOC(=O)C1=C(C)NC(SCC(=O)OCC)=C(C#N)C1c1ccc(O)c(OC)c1 (configuration not stated) | -8.14* | 0.89*
CCOC(=O)C1(Cc2ccccc2C)CCCN(C(=O)c2cc(CC)nn2C)C1 (configuration not stated) | i | -0.61
CCN(CC)S(=O)(=O)c1ccc(Cl)c(NC(C)=O)c1 | i | 1.15
COC(=O)COc1ccc(S(=O)(=O)NCc2ccc3c(c2)OCO3)cc1C | i | -0.18
O=C(NNS(=O)(=O)c1ccc([N+](=O)[O-])cc1)C(=O)Nc1cccc(C(=O)O)c1 | i | -0.32
COc1ccc(C(=O)NCCS(=O)(=O)N2CCCC2)cc1 | i | -0.11
Cc1ccc(-c2nnc(SCC(=O)NC3CCCc4ccccc43)n2N)cc1 (configuration not stated) | i | -0.28
COCCCn1c(C)nnc1SCC(=O)Nc1ccc(C(C)=O)cc1 | i | -2.09
O=C(N/C(=C\c1ccc(Cl)cc1)C(=O)N1CCCCC1)c1ccco1 | i | -0.58
CCOc1ccc(CN2CCCN(C)CC2)cc1 | i | 0.04
O=C(/C=C/c1ccccc1O)c1ccco1 | i | 1.29
CC1=C(C)CC(C(=O)NCCc2ccc(F)cc2)C(C(=O)O)C1 (configuration not stated) | i | 0.36
O=C(O)c1ccc(OCCN2CCCC2=O)cc1 | i | 0.93

Only part of the results is shown, so the mix of outcomes need not match the whole.
